FGF22 binding = binders of human FGF22 protein, primary screen, FGF22 synaptogenesis inhibitor project, biophysical, thermal shift, single point; AID 651658, 2012; hit rate 1.5% among 340,000; calls only at 9.99 µM; recombinant FGF22 thermal shift, SYPRO orange fluorescence; percent of sucrose octasulfate shift, DMSO zero; Fibroblast growth factor 22 (Homo sapiens), Q9HCT0;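 active = melting point raised past a set limit in the mean and every replicate; three in four hits are not shown here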
Target sequence (Q9HCT0 whole entry, looked up): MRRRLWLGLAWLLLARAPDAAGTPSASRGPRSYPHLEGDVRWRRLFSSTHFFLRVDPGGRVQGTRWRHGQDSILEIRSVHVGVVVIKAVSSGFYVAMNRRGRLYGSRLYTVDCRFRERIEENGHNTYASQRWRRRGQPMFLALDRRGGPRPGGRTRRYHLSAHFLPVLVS
rRNA inh HTS = reduced GFP signal of wild-type E. coli, primary screen, bacterial rRNA inhibitor project, GFP/RFP fluorescence, OD600, single point | E. coli WT GFP vs humanized-ribosome RFP mutants, 24 h; stronger effect = lower value; DMSO median 0, no signal -100 | GFP signal change (wild-type ribosome), % (test concentration not listed) | hit rate 1.6% among 350,000;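 active = significant combined selectivity score with lowered wild-type GFP, culture density cut under 30%, mutant RFP and density less affected; inactive = any of these conditions unmet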; note: one replicate is shown; some compounds called inactive have numbers as strong as hits
rRNA inh HTS OD600 = also measured in rRNA inh HTS; calls as there; OD600 change, %; measured here: OD600 growth;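 optical density of the mix in the first replicate; 0 = DMSO median and -100 = no signal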
rRNA inh HTS RFP = recorded beside rRNA inh HTS, whose call it bears; RFP signal change, %; measured here: RFP humanized mutant strains;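 first replicate; 0 = DMSO median and -100 = no signal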
An asterisk follows results filed as active; i = inactive.

cpd	molecule	rRNA inh HTS	rRNA inh HTS RFP	FGF22 binding	rRNA inh HTS OD600
1	Cc1noc(C)c1NC(=O)N(C)C[C@@H]1Oc2ccc(NS(=O)(=O)c3ccccc3)cc2CC(=O)N([C@@H](C)CO)C[C@@H]1C	3	-1.4	i	12
2	Cc1noc(C)c1S(=O)(=O)N(C)C[C@@H]1Oc2ccc(NS(=O)(=O)c3cn(C)cn3)cc2CC(=O)N([C@H](C)CO)C[C@H]1C	3	-1.3	i	-8
3	COc1ccc(NC(=O)N(C)C[C@H]2Oc3ccc(NS(=O)(=O)c4cccs4)cc3CC(=O)N([C@@H](C)CO)C[C@@H]2C)cc1	3	0.2	i	8
4	CCC(=O)N[C@H]1CC[C@@H](CC(=O)OC)O[C@@H]1CO	7	0.3	i	12
5	CC(C)NC(=O)N(C)C[C@@H]1Oc2c(NS(=O)(=O)c3ccc(F)cc3)cccc2C(=O)N([C@@H](C)CO)C[C@@H]1C	-2	1.6	i	-3
6	Cc1noc(C)c1NC(=O)N(C)C[C@H]1OCCCC[C@@H](C)Oc2ccc(NC(=O)Cc3ccccc3)cc2C(=O)N([C@@H](C)CO)C[C@H]1C	-2	-1.1	i	-3
7	COc1ccc(S(=O)(=O)Nc2ccc3c(c2)C(=O)N([C@H](C)CO)C[C@H](C)[C@@H](CN(C)C(=O)Cc2ccccc2)OCCCC[C@H](C)O3)cc1	-4	0.8	i	-4
8	CC(C)NC(=O)Nc1cccc2c1O[C@@H](CN(C)Cc1ccc(C(F)(F)F)cc1)[C@@H](C)CN([C@H](C)CO)C2=O	0	0.8	i	-4

Some of the entries above in another layout:
Fields – rRNA inh HTS	rRNA inh HTS RFP	FGF22 binding	rRNA inh HTS OD600
(4) CCC(=O)N[C@H]1CC[C@@H](CC(=O)OC)O[C@@H]1CO
  7	0.3	i	12
(5) CC(C)NC(=O)N(C)C[C@@H]1Oc2c(NS(=O)(=O)c3ccc(F)cc3)cccc2C(=O)N([C@@H](C)CO)C[C@@H]1C
  -2	1.6	i	-3
(6) Cc1noc(C)c1NC(=O)N(C)C[C@H]1OCCCC[C@@H](C)Oc2ccc(NC(=O)Cc3ccccc3)cc2C(=O)N([C@@H](C)CO)C[C@H]1C
  -2	-1.1	i	-3
(7) COc1ccc(S(=O)(=O)Nc2ccc3c(c2)C(=O)N([C@H](C)CO)C[C@H](C)[C@@H](CN(C)C(=O)Cc2ccccc2)OCCCC[C@H](C)O3)cc1
  -4	0.8	i	-4
(8) CC(C)NC(=O)Nc1cccc2c1O[C@@H](CN(C)Cc1ccc(C(F)(F)F)cc1)[C@@H](C)CN([C@H](C)CO)C2=O
  0	0.8	i	-4

The results go on.
cpd	molecule	rRNA inh HTS	rRNA inh HTS RFP	FGF22 binding	rRNA inh HTS OD600
9	C[C@H](CO)N1C[C@H](C)[C@H](CN(C)Cc2ccccc2C(F)(F)F)OCc2cnnn2CCCC1=O	-2	3.4	i	-14
10	COc1ccccc1NC(=O)N(C)C[C@@H]1Oc2ncc(C#CCN(C)C)cc2C(=O)N([C@@H](C)CO)C[C@@H]1C	3	-0.9	i	7
11	C[C@@H]1CCCCO[C@H](CN(C)Cc2ccc(Cl)c(Cl)c2)[C@@H](C)CN([C@H](C)CO)C(=O)c2cc(NC(=O)Cc3ccccc3)ccc2O1	2	2.3	i	-1
12	Cc1ccc(S(=O)(=O)N(C)C[C@@H]2Oc3ccc(NC(=O)NC4CCCCC4)cc3C(=O)N([C@H](C)CO)C[C@H]2C)cc1	-4	0.6	i	-20
13	COc1ccc(NC(=O)N2CCCCN3[C@@H](CO)[C@@H](c4ccc(C#Cc5ccccn5)cc4)[C@@H]3C2)cc1	4	0.8	i	13
14	C[C@H]1CCCCO[C@H](CN(C)CC2CC2)[C@@H](C)CN([C@@H](C)CO)C(=O)c2cc(NC(=O)C3CCCCC3)ccc2O1	1	1.7	i	2
15	CCc1cnc(N2[C@H](C#N)[C@@H](c3ccc(C#Cc4ccccc4F)cc3)[C@H]2CO)s1	-3	-1.5	i	-9
16	COc1ccc(-c2cnc3c(c2)C(=O)N([C@@H](C)CO)C[C@H](C)[C@@H](CN(C)C(=O)Cc2ccccc2)O3)cc1	-9	-2.4	i	-4

(continued)
cpd	molecule	rRNA inh HTS	rRNA inh HTS RFP	FGF22 binding	rRNA inh HTS OD600
17	COc1ccc(NC(=O)Nc2ccc3c(c2)C(=O)N([C@H](C)CO)C[C@H](C)[C@H](CN(C)C(=O)NC(C)C)O3)cc1	1	-0.3	i	2
18	C[C@@H]1CCCCO[C@@H](CN(C)Cc2ccc(C(=O)O)cc2)[C@H](C)CN([C@@H](C)CO)C(=O)c2cc(NC(=O)C3CCCCC3)ccc2O1	0	-0.9	i	3
19	CCCNC(=O)Nc1ccc2c(c1)OC[C@H](C)N(Cc1cncnc1)C[C@@H](C)[C@H](OC)CN(C)C2=O	1	0.7	i	13
20	COc1ccc(S(=O)(=O)N(C)C[C@@H]2OCCCC[C@H](C)Oc3ccc(NC(=O)Cc4ccccc4)cc3C(=O)N([C@H](C)CO)C[C@@H]2C)cc1	0	-3.5	i	-3
21	COc1ccccc1CNC(=O)C[C@@H]1C[C@H]2c3cc(NC(=O)Nc4ccccc4F)ccc3O[C@H]2[C@H](CO)O1	-4	1.9	i	-4
22	COc1ccc(CN(C)C[C@H]2OCCCC[C@@H](C)Oc3ccc(NC(=O)C4CCCCC4)cc3C(=O)N([C@H](C)CO)C[C@H]2C)cc1	5	0.8	i	0
23	C[C@H](CO)N1C[C@H](C)[C@H](CN(C)C(=O)Nc2ccc(F)cc2)Oc2ncc(-c3cccc(F)c3)cc2C1=O	-4	-0.3	i	-10
24	C[C@@H]1CCCCO[C@H](CN(C)S(=O)(=O)c2cccs2)[C@@H](C)CN([C@@H](C)CO)C(=O)c2cc(NC(=O)CCC(F)(F)F)ccc2O1	-3	0.2	i	-8

(further entries)
cpd	molecule	rRNA inh HTS	rRNA inh HTS RFP	FGF22 binding	rRNA inh HTS OD600
25	CCC(=O)Nc1ccc2c(c1)C(=O)N(C)C[C@@H](OC)[C@H](C)CN(C(=O)c1cccnc1)[C@@H](C)CO2	2	-0.1	i	0
26	C[C@@H]1CN([C@H](C)CO)C(=O)c2cc(NS(=O)(=O)c3ccc(F)cc3)ccc2O[C@H]1CN(C)Cc1ccccc1	-1	0.9	i	-5
27	COc1cccc(NC(=O)N2CC3(C2)[C@H](c2ccccc2)[C@@H](CO)N3C(C)=O)c1	-1	-2.4	i	5
28	C[C@@H]1CN([C@@H](C)CO)C(=O)c2cc(NC(=O)CCCCCC(=O)Nc3ccccc3N)ccc2O[C@H]1CN(C)C(=O)Nc1ccccc1	3	-1.4	i	3
29	C[C@@H]1CN([C@@H](C)CO)C(=O)c2cc(NS(=O)(=O)c3ccc(Cl)cc3)ccc2O[C@@H](C)CCCCO[C@@H]1CN(C)C(=O)Nc1ccc2c(c1)OCO2	-1	-0.2	i	-1
30	C[C@@H]1CCCCO[C@@H](CN(C)S(=O)(=O)c2ccc(F)cc2)[C@@H](C)CN([C@@H](C)CO)C(=O)c2cc(NC(=O)NC3CCCCC3)ccc2O1	4	1.0	i	8
31	C[C@@H]1CCCCO[C@@H](CN(C)C(=O)Nc2ccccc2)[C@@H](C)CN([C@@H](C)CO)C(=O)c2cc(NS(=O)(=O)c3ccc(Cl)cc3)ccc2O1	1	-1.9	i	-5
32	C[C@H]1CN([C@@H](C)CO)S(=O)(=O)c2ccc(C#Cc3ccc(F)cc3)cc2O[C@H]1CN(C)C(=O)c1ccccn1	-1	25	i	-42

Following part
cpd	molecule	rRNA inh HTS	rRNA inh HTS RFP	FGF22 binding	rRNA inh HTS OD600
33	C=CCNc1cccc2c1S(=O)(=O)N[C@@H](Cc1ccccc1)CO2	-36	-9.0	i	-43
34	COc1ccc(C#Cc2ccc([C@@H]3[C@H](CO)N4CCCCN(S(=O)(=O)c5ccccc5)C[C@@H]34)cc2)cc1	-2	24	i	-23
35	C[C@@H]1CCCCO[C@H](CN(C)C(=O)Nc2ccc3c(c2)OCO3)[C@H](C)CN([C@@H](C)CO)C(=O)c2cc(NC(=O)c3ccccc3)ccc2O1	-4	-2.1	i	2
36	C[C@@H]1CCCCO[C@@H](CN(C)Cc2ccc(C(=O)O)cc2)[C@H](C)CN([C@H](C)CO)C(=O)c2cc(NS(=O)(=O)c3ccccc3)ccc2O1	3	-0.6	i	1
37	O=C(C[C@@H]1CC[C@@H]2[C@H](COC[C@@H](O)CN2C(=O)Cc2ccccc2)O1)NC1Cc2ccccc2C1	4	-3.1	i	16
38	C[C@H]1CN([C@@H](C)CO)C(=O)c2cc(-c3ccc(F)cc3)cnc2O[C@H]1CN(C)C(=O)c1cccnc1	1	-4.3	i	2
39	COc1ccc(S(=O)(=O)N(C)C[C@H]2Oc3c(NC(=O)NC4CCCCC4)cccc3C(=O)N([C@H](C)CO)C[C@H]2C)cc1	-5	-0.1	i	-9
40	C[C@@H]1CN([C@@H](C)CO)C(=O)Cc2cc(NS(=O)(=O)c3ccccc3)ccc2O[C@@H]1CN(C)S(=O)(=O)c1ccc(Cl)cc1	-2	6.2	i	-13

The results go on:
cpd	molecule	rRNA inh HTS	rRNA inh HTS RFP	FGF22 binding	rRNA inh HTS OD600
41	Cc1ccc(S(=O)(=O)N(C)C[C@@H]2OCCCC[C@@H](C)Oc3ccc(NS(=O)(=O)c4c(C)noc4C)cc3C(=O)N([C@@H](C)CO)C[C@H]2C)cc1	1	-0.2	i	2
42	COC(=O)C[C@@H]1CC[C@@H]2[C@H](COc3ccc(NC(=O)Nc4c(C)noc4C)cc3C(=O)N2C)O1	6	-2.2	i	14
43	COc1ccc(-c2cnc3c(c2)C(=O)N([C@H](C)CO)C[C@H](C)[C@H](CN(C)Cc2cccnc2)O3)cc1	7	-1.5	i	20
44	CCCCNc1cccc2c1S(=O)(=O)N[C@H](Cc1ccccc1)CO2	-3	-11	i	-24
45	Cc1ccccc1-c1ccccc1[C@@H]1[C@H](C#N)N(C(=O)c2ccccc2)[C@H]1CO	2	5.2	i	-33
46	CCC(=O)Nc1ccc2c(c1)C(=O)N(C)[C@H]1CC[C@H](CC(=O)Nc3cccc(F)c3)O[C@@H]1CO2	-7	-1.0	i	-7
47	CO[C@@H]1CN(C)C(=O)c2cc(NC(C)=O)ccc2OC[C@H](C)N(C(=O)C2CCC2)C[C@@H]1C	0	-1.5	i	3
48	C[C@@H]1CN([C@@H](C)CO)C(=O)Cc2cc(NS(C)(=O)=O)ccc2O[C@@H]1CN(C)S(C)(=O)=O	-1	-4.5	i	3

Continued.
cpd	molecule	rRNA inh HTS	rRNA inh HTS RFP	FGF22 binding	rRNA inh HTS OD600
49	C[C@@H]1CN([C@H](C)CO)C(=O)c2cc(C#Cc3ccccn3)cnc2O[C@@H]1CN(C)C(=O)c1ccccn1	15	-1.0	i	0
50	CN1C(=O)c2cc(NC(=O)c3ccc(F)cc3)ccc2OC[C@@H]2O[C@H](CC(=O)NC3CCC3)CC[C@H]21	-1	2.6	i	2
51	C[C@H]1CN([C@@H](C)CO)C(=O)c2cc(NS(=O)(=O)c3ccc(Cl)cc3)ccc2O[C@H]1CN(C)S(=O)(=O)c1cn(C)cn1	3	-0.1	i	4
52	CNC[C@@H]1Oc2cc(C#C[C@H](C)O)ccc2S(=O)(=O)N([C@@H](C)CO)C[C@H]1C	3	0.5	i	-3
53	Cc1noc(C)c1NC(=O)Nc1ccc2c(c1)C(=O)N([C@@H](C)CO)C[C@@H](C)[C@H](CN(C)S(C)(=O)=O)O2	1	0.1	i	6
54	COc1ccc(CN2C[C@@H](C)[C@@H](OC)CN(C)C(=O)c3cc(NC(=O)c4nc5ccccc5s4)ccc3OC[C@@H]2C)cc1	-6	7.6	i	1
55	C[C@@H]1CN([C@H](C)CO)C(=O)c2cccc(NC(=O)c3cnccn3)c2O[C@H]1CN(C)Cc1ccc(Cl)c(Cl)c1	-15	2.2	i	-12
56	C[C@H]1CN([C@@H](C)CO)C(=O)c2cc(NC(=O)Cn3cnnn3)ccc2O[C@@H]1CN(C)S(=O)(=O)c1ccc(Cl)cc1	-1	-2.1	i	0

Remaining list, next part
cpd	molecule	rRNA inh HTS	rRNA inh HTS RFP	FGF22 binding	rRNA inh HTS OD600
57	C[C@@H]1CN([C@H](C)CO)C(=O)c2cc(NC(=O)CCC(F)(F)F)ccc2O[C@@H](C)CCCCO[C@@H]1CN(C)S(=O)(=O)c1ccc(Cl)cc1	1	0.8	i	1
58	CNC[C@@H]1OCCCC[C@@H](C)Oc2ccc(NC(=O)Nc3c(C)noc3C)cc2C(=O)N([C@H](C)CO)C[C@H]1C	6	-2.1	i	4
59	CCCN(C)C[C@@H]1Oc2cc(C#CC(C)C)ccc2S(=O)(=O)N([C@@H](C)CO)C[C@@H]1C	6	0.7	i	5
60	CCCNC(=O)Nc1ccc2c(c1)C(=O)N(C)C[C@H](OC)[C@H](C)CN(Cc1cccnc1)[C@H](C)CO2	0	-0.2	i	8
61	O=C1CN(Cc2ccccc2)C[C@@H]2[C@H](c3ccc(Br)cc3)[C@@H](CO)N12	-1	-2.1	i	-2
62	CCCC#Cc1ccc2c(c1)O[C@H](CN(C)C(=O)Nc1ccccc1F)[C@@H](C)CN([C@H](C)CO)S2(=O)=O	-5	4.1	i	-23

Screening results deposited in PubChem by Broad Institute.

Some of the compounds tested. The share of hits here may be higher or lower than overall.
